Bm FixLJ act: activators of Burkholderia fixLJ two-component system; z-score (test concentration not listed); 29,000 compounds, 0.3% hits; B. multivorans fixK-promoter GFP reporter, 18 h; stronger effect = higher value;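 active = replicate mean overnight rise in green fluorescent reporter signal, 3 or more SD over negative controls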;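 also: score is relative to vehicle wells of the plate; 300 nL library stock went into each well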
An asterisk follows results filed as active.

SMILES	Bm FixLJ act
Cc1cc(CC(=O)N2CCC(Cc3noc(C4CC4)n3)CC2)on1	0.03
CC(NC(=O)N(C)CCN1CCCCC1=O)c1ccc(Cl)cc1 (stereo not given)	1.8
Nc1c(C(=O)Nc2ccc(Cl)cc2)sc2nc3c(cc12)N1CCC3CC1	-2.5
COc1ccccc1CNC(=O)CCNS(=O)(=O)c1cccc2nsnc12	0.58
Cc1cccc(OCCn2c(SCC(N)=O)nc3ccccc32)c1	0.67
CCCCOc1ccc(Cn2c(=O)sc3ccccc32)cc1	2.8
Cc1cc(C)n(CC(C)NC(=O)N(C)Cc2cc(-c3ccccc3)n[nH]2)n1 (stereo not given)	-0.16
COC(=O)c1ccccc1NC(=O)CN1C(=O)COc2ccc(Cl)cc21	-2.4
COc1ccc(CNC(=O)c2cc(Nc3ccc(C)cc3C)nc3ccccc23)cc1	0.43
Cc1ccncc1C(=O)N1CCC2(CC1)c1nc[nH]c1CCN2C(=O)C1CC1	-0.02
Cc1nc(SCC(=O)Nc2ccc(Cl)cc2C(F)(F)F)[nH]c(=O)c1Cc1ccccc1	-0.64
COc1ccc(-c2nc(SCC(=O)Nc3ccc4c(c3)OCO4)c(-c3ccc(OC)cc3)[nH]2)cc1	-1.9
CCOc1ccc(S(=O)(=O)Nc2ccc3c(c2)c(C(C)=O)c(C)n3S(=O)(=O)c2ccc(OCC)cc2)cc1	0.55
CCc1nn2c(=O)c(S(=O)(=O)Nc3ccc(OC)c(Cl)c3)c(C)nc2s1	-1.9
CC(C)Nc1nc2c(-c3cccc(Br)c3)nnn2c2ccccc12	-0.7
O=C(Nc1sc2c(c1C(=O)Nc1ccc(Cl)cc1)CCCC2)c1cccs1	-0.29
COc1nccc(-c2cccc(C(=O)N(C)CCCC3CCCO3)c2)c1C#N (stereo not given)	0.88
COc1ccc(NC(=O)CCc2nc3cccnc3n2-c2ccccc2)c(OC)c1	-1.2
COc1ccccc1N1CCN(C(=O)c2ccc3c(c2)N(Cc2ccccc2)C(=O)c2ccccc2S3(=O)=O)CC1	0.22
NC(Cc1cnc[nH]1)C(=O)NCc1noc(-c2cccs2)n1 (stereo not given)	-0.6
COc1cc2nc(Nc3cccc(F)c3)nc(N)c2cc1OC	-1
COCCCn1cnnc1C(C)NC(=O)Nc1ccc2c(c1)OCC(=O)N2 (stereo not given)	0.41
COc1cc(Cl)c(NC(=O)c2cc(CN3CCCC3)on2)c(OC)c1	-0.05
CC1CCN(C(=O)CSc2c3c(nc4cc(Cl)ccc24)CCCC3)CC1	-1.8
CCCCN1CC2(CCCN(C(=O)CCn3cc(C)cn3)C2)CCC1=O (stereo not given)	-0.87
CCOc1ccccc1N1CC(c2nc3ccccc3n2CCCOc2ccccc2OC)CC1=O (stereo not given)	-1.8
CN(C)S(=O)(=O)CC1CN(c2ncccc2C(=O)N2CCCC2)CC1O (stereo not given)	-1.3
CN(CCn1ccc2ccccc21)C(=O)NCCCc1cnn(C)c1	0.51
O=C(NCCCc1nc2ccccc2o1)C1Cc2ccccc2O1 (stereo not given)	0.11
O=C(NC1CCOCC1)c1ccc2c(c1)n(CC1CC1)c(=O)n2C1CCCCC1	-3
Cc1ccccc1Nc1cc(C(=O)NC2CCCC2)c2ccccc2n1	-1.7
O=C(Cn1nnc2sc3c(c2c1=O)CCCC3)Nc1ccc(F)c(Cl)c1	-1.4
COc1cc(NC(=O)c2cccc(Cl)c2Cl)ccc1NC(=O)c1cc2ccccc2o1	0.1
COc1ccc(-n2cnnc2)cc1NC(=O)c1cc(C2CC2)no1	-1.3
COC(=O)c1ccccc1NC(=O)c1cc2c(s1)-c1ccccc1OC2	0.38
CCCSc1oc(-c2cccs2)nc1S(=O)(=O)c1ccc(Cl)cc1	-2.2
C=CCc1ccccc1OCc1nc2ccc(C)cc2[nH]1	-2.3
COc1cc2[nH]c(=O)n(CCCC(=O)NCc3ccccc3Cl)c(=O)c2cc1OC	-1.5
CCC(CC)C(=O)Nc1ccc(OCc2cc(=O)n3ccsc3n2)cc1	-1.2
COc1ccc(-c2cc(C(F)(F)F)nc(S(=O)(=O)CCCC(=O)Nc3ccccc3C(F)(F)F)n2)cc1OC	-1.5
O=C(Nc1ccccc1)c1ccc(Cl)c(S(=O)(=O)Nc2ccccc2)c1	-2.6
COc1ccccc1N1CCN(c2nc3ccc(C)cc3nc2-n2nc(C)cc2C)CC1	-0.2
CC(=O)N1CCc2c(sc3c2c(=O)n(Cc2ccccc2)c(=O)n3Cc2ccccc2F)C1	-1
CCOc1ccc(NC(=O)Cn2cc(C(=O)c3ccc(F)cc3)c(=O)c3cc4c(cc32)OCCO4)cc1	-0.74
COc1ccc2c(C)c(CCC(=O)NCc3ccc(Cl)cc3)c(=O)oc2c1C	-0.74
COc1cccc(N2CCN(C(=O)c3ccc4nc(N5CCC(C)CC5)sc4c3)CC2)c1	-0.13
COc1ccc(NC(=O)c2ccc(NC(=O)CCS(=O)(=O)c3cccs3)cc2)cc1Cl	-1.1
CSc1cccc(Nc2nc3c(S(=O)(=O)c4ccccc4)nnn3c3ccc(Cl)cc23)c1	-0.45
O=C(CSc1cn(CCNC(=O)c2ccccc2F)c2ccccc12)Nc1ccc(F)cc1	-0.96
CCCSc1ncc(Cl)c(C(=O)Nc2c(C(=O)Nc3ccc(OC)cc3)oc3ccccc23)n1	-0.33
Cc1cccc(Nc2nc(-c3ccccc3)c3cc(C)ccc3n2)c1	1.6
NC(=O)Cn1c(=O)n(-c2ccc(F)c(Cl)c2)c(=O)c2sc3ccccc3c21	-0.22
CCn1cc(C(=O)N2CCN(c3cccc(Cl)c3)CC2)c(=O)c2cc(S(=O)(=O)N3CCOCC3)ccc21	0.73
COc1cc(C)ccc1OCCn1c(-c2ccc(Cl)cc2)nc2ccccc2c1=O	-1.2
Cc1c(C(=O)OCC2CCCCC2)[nH]c2c1C(=O)CC(c1ccc(F)cc1)C2 (stereo not given)	-3.6
Cc1ccc(N2C(=O)[C@@H]3CSC(c4ccc(F)cc4)N3C2=O)cc1 (stereo not given in full)	-1.1
COCC(=O)n1nc(-c2ccco2)nc1NCc1ccccc1Cl	-0.12
CCOC(=O)c1c(NC(=O)/C=C/c2ccc(OCC)c(OC)c2)sc2c1CCC2	0.55
COc1ccc(-c2csc(-c3c(N)c(C(=O)c4ccccc4)n4ccccc34)n2)cc1	0.74
COc1ccc(C)cc1NC(=O)CN1CCCN(S(=O)(=O)c2ccc(Br)cc2)CC1	1.3

Carrying on:
SMILES	Bm FixLJ act
O=C(NCc1nc(Cc2cccs2)no1)c1ccc2cccc(F)c2n1	0.74
CCc1cc(N2CCN(CCC(=O)Nc3nccs3)CC2)ncn1	-2.5
Cc1nn(C)c(C)c1CCC(=O)N1CCCC2(CCc3cn[nH]c32)C1 (stereo not given)	-0.63
CCCc1nnc(NC(=O)c2cc(=O)c3cc(C)c(C)cc3o2)s1	-1.1
COc1ccc(NC(=O)C(=O)NCc2ccco2)cc1	-2.4
Cc1ccccc1C(=O)c1cccn1CC(=O)NCc1cccc(Cl)c1	-1.8
COCC1C(NC(=O)c2ccc(OC(C)C)cc2)C2CCOC21 (stereo not given)	-2.1
Cc1ccc(NC(=O)C(Cc2ccccc2)n2cccc2)cc1C (stereo not given)	-0.66
Cc1c(CN2CCn3nc(C(O)Cc4ccccc4)cc3C2)cc(C#N)n1C (stereo not given)	-1
Cc1nnnn1-c1cccc(NC(=O)C2CCN(C(=O)c3ccccn3)CC2)c1	0.87
COc1cccc(-n2c(/C=C/c3cccc(C)c3)nc3ccccc3c2=O)c1	-1.9
Cc1ccc(OCC(=O)Nc2ccc(Cl)cc2C(=O)c2ccccc2)cc1	-1.6
CCOC(=O)c1ccccc1NC(=O)Cn1c(=O)n(Cc2ccccc2)c(=O)c2c(C)c(C)sc21	-1.1
NC(=O)C1(N2CCCCC2)CCN(C(=O)Nc2ccc(F)cc2F)CC1	1
Cc1ccccc1NC(=O)CCNC(=O)Cn1ccc2ccccc2c1=O	0.18

Reformatted: entries from further up
COCC1C(NC(=O)c2ccc(OC(C)C)cc2)C2CCOC21 (stereo not given)
  Bm FixLJ act: -2.1

Cc1ccc(OCC(=O)Nc2ccc(Cl)cc2C(=O)c2ccccc2)cc1
  Bm FixLJ act: -1.6

Cc1ccc(NC(=O)C(Cc2ccccc2)n2cccc2)cc1C (stereo not given)
  Bm FixLJ act: -0.66

Additional compounds
SMILES	Bm FixLJ act
CCN(Cc1ccccc1)C(=O)Cn1c(=O)n(-c2cccc(C)c2)c(=O)c2c1c1cc(OC)ccc1n2C	1.3
CCn1c(=O)c2cc(C(=O)Nc3cc(F)ccc3F)sc2c2ccccc21	-0.57
O=C(NC(=O)c1ccccc1)Nc1ccc(-n2nc(C(F)(F)F)cc2C(F)(F)F)cc1	-1.6
Cc1ccc(-c2cc(NC(=O)COc3c(C)cc(C)cc3C)on2)cc1	-0.18
CCOCC1CCCN1S(=O)(=O)c1cc(-c2ccno2)sc1C (stereo not given)	-1.6
Clc1ccc(CCNc2nc3cc(Cl)c(Cl)cc3n3cnnc23)cc1	-0.71
Cc1ccc(NC(=O)Cn2c(-c3nonc3N)nc3ccccc32)cc1C	0.27
Cc1nc(SCC(=O)Nc2ccccc2F)[nH]c(=O)c1Cc1ccccc1	0.36
Cc1cc(C)cc(OCC(=O)Nc2ccc(-c3nc4ccccc4o3)cc2)c1	-0.47
COc1cc2c(cc1OC)C1(CCN(C(=O)Cn3cccn3)CC1)OCC2	-1.4
Cc1cc(C)cc(C(=O)N2CC(=O)Nc3ccc(C)cc3C2c2ccccc2)c1 (stereo not given)	-0.86
CCc1ccc(NC(=O)CSc2ncc(S(=O)(=O)c3cc(C)ccc3C)c(=O)[nH]2)cc1	-0.54
COc1ccc(NC(=O)CCn2nc(-c3ccccc3OC)c3c(C)cc(C)nc32)cc1	-2.3
CCOc1cc(C(=O)Nc2ccc(-c3cn4cccnc4n3)cc2)cc(OCC)c1OCC	-0.93
CC[C@H]1OC(=O)[C@H](C)[C@@H](O[C@H]2C[C@@](C)(OC)[C@@H](O)[C@H](C)O2)[C@H](C)[C@@H](O[C@@H]2O[C@H](C)C[C@H](N(C)C)[C@H]2O)C(C)(O)C[C@@H](C)CN(C)[C@H](C)[C@@H](O)[C@]1(C)O (stereo not given in full)	-2.6

4 of the compounds above, with each value named.
CCOCC1CCCN1S(=O)(=O)c1cc(-c2ccno2)sc1C (stereo not given)
- Bm FixLJ act = -1.6
Clc1ccc(CCNc2nc3cc(Cl)c(Cl)cc3n3cnnc23)cc1
- Bm FixLJ act = -0.71
Cc1ccc(NC(=O)Cn2c(-c3nonc3N)nc3ccccc32)cc1C
- Bm FixLJ act = 0.27
Cc1nc(SCC(=O)Nc2ccccc2F)[nH]c(=O)c1Cc1ccccc1
- Bm FixLJ act = 0.36

(cont.)
SMILES	Bm FixLJ act
CCN(Cc1ccccc1)Cc1c(O)ccc2c(=O)c(-c3ccccc3Cl)coc12	-3
Cc1cc(Nc2ccc(Cl)cc2)n2cnnc2n1	-1.2
O=C(CCc1cccnc1)NC1CCN(C2CCS(=O)(=O)CC2)CC1	-0.02
CC(C)n1cc(NC(=O)NCC2CC(=O)N(C)c3ccccc32)nn1 (stereo not given)	-2
NC(=O)C1CC=CCC1Nc1ccnc2c(F)cc(F)cc12 (stereo not given)	0.33
Cc1ccc(-c2c(C(=O)N3CCN(c4cccc(C)c4C)CC3)oc(=O)c3ccccc23)cc1	-0.99
COC(=O)c1cc2sccc2n1Cc1c(C)cc(C)cc1C	-1.6
Cc1nc(SCC(=O)NC(C)COc2c(C)cccc2C)n[nH]1 (stereo not given)	-0.09
Cc1noc(C)c1S(=O)(=O)N(CC(=O)NCCc1ccccc1)c1ccc(C(C)C)cc1	-0.86
O=C(c1ccc2c(Cl)c3c(nc2c1)CCCC3)N1CCN(c2cccc(Cl)c2)CC1	0.57
O=C(c1ccc2c(c1)OCCO2)N1CC(CO)C(CN2CCOCC2)C1 (stereo not given)	-0.35
COc1c(C)cc(S(=O)(=O)NCCc2c(C)[nH]c3ccccc23)c(C)c1C	-0.18
Cc1nc(=O)[nH]c(C)c1CCC(=O)NC(C)CC(C)(C)c1ccccc1 (stereo not given)	-1.4
Cc1ccc(NC(=O)Cn2c(=O)n(CCCCC(=O)NCCc3ccc(Cl)cc3)c(=O)c3ccccc32)cc1	-1.8
CCCCN(CC)C(=O)CCNS(=O)(=O)c1ccc2c(c1)c(=O)n(C)c(=O)n2C	-2
COc1cc2c(=O)n(Cc3ccccc3Cl)c(=O)n(CC(=O)Nc3ccc(C)c(C)c3)c2cc1OC	-1.4
Cn1c(=O)oc2cc(S(=O)(=O)N3CCC(C(=O)NCc4ccccc4Cl)CC3)ccc21	-0.55
CC(C)OC(=O)c1ccc(NC(=O)CSc2nc(-c3cccs3)cc(C(F)(F)F)n2)cc1	-0.43
CCN(CC)S(=O)(=O)c1ccc2c(c1)c(=O)c(C(=O)N1CCN(c3cccc(C)c3)C(C)C1)cn2C (stereo not given)	0.04
Cc1nc(C(C)C)sc1CNC(=O)c1c[nH]c(=O)c(Cl)c1	-1.2
COc1cc(OC)cc(C(=O)Nc2ccc(S(=O)(=O)Nc3cc(C)nc(C)n3)cc2)c1	-1.2
COC(=O)C1=C(c2ccccc2)c2ccccc2S(=O)(=O)N1CC(=O)Nc1ccc(F)c(F)c1	0.67
COc1ccc(-c2nc(CS(=O)(=O)CC(=O)NCc3ccccc3Br)c(C)o2)cc1	-1.2
Cc1ccccc1Cn1nnc2sc3c(c2c1=O)CCCC3	-1.1
COc1ccc(-n2nc(C(=O)Nc3ccc(Cl)cn3)c3c4ccccc4n(C)c3c2=O)cc1Cl	-0.34

A portion of the library; count on the stated rates, not on these rows.
